FGF22 binding: binders of human FGF22 protein, primary screen, FGF22 synaptogenesis inhibitor project, biophysical, thermal shift, single point; Fibroblast growth factor 22 (Homo sapiens), Q9HCT0; recombinant FGF22 thermal shift, SYPRO orange fluorescence; percent of sucrose octasulfate shift, DMSO zero; calls only at 9.99 µM; 1.5% of 340,000 active; AID 651658, 2012;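 active = melting point raised past a set limit in the mean and every replicate; three in four hits are not shown here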
HNF4A DNA FP: change in binding of human HNF4A to DNA, primary screen, biochemical, fluorescence polarization, FITC-DNA | Hepatocyte nuclear factor 4-alpha (Homo sapiens), P41235 | 1 h | activity change, % at 10 µM | 0.3% of 360,000 active | AID 1224865, 2016; in the data active = activity change above about 30%, passing the limit was not always enough;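 also: controls were the assay level and a saturating level of protein; the project sought stronger binding though the title names inhibitors; some compounds called inactive have numbers as strong as hits; positive values seem to mean higher polarization but the record does not say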
Target sequence (P41235 whole entry, looked up): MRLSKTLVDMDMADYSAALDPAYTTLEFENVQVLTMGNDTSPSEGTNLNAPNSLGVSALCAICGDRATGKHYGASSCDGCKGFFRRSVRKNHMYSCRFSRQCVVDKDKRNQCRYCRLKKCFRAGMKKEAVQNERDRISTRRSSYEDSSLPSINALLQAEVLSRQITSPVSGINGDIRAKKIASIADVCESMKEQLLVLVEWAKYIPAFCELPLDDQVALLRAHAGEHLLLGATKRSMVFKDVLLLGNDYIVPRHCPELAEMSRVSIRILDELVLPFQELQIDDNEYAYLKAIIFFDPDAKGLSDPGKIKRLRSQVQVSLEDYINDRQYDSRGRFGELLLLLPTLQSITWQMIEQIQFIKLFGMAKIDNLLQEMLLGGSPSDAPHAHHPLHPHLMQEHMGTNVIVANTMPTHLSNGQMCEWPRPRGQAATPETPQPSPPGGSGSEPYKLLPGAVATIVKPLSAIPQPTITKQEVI
UCH37 DUB inh: inhibitors of human UCH37 deubiquitinase, primary screen, biochemical, Ub-AMC cleavage, fluorescence; Ubiquitin carboxyl-terminal hydrolase isozyme L5 (Homo sapiens), Q9Y5K5; purified proteasome/UCH37; inhibition, % (test concentration not listed); 0.33% of 330,000 active;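 active = mean of two replicates above 20%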;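 also: 0% = compound-free wells with enzyme and 100% = wells lacking proteasome; stock transfer was 100 nL into about 20 µL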
Target sequence (Q9Y5K5 whole entry, looked up): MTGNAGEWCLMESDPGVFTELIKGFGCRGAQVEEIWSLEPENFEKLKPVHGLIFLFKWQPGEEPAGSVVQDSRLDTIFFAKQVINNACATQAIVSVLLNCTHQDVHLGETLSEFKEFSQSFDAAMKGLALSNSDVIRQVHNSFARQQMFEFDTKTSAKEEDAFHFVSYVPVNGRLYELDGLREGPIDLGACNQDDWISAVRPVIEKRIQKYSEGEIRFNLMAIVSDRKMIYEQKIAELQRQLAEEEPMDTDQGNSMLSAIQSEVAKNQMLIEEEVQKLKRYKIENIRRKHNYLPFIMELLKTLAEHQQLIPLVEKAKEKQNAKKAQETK
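Test system – human UCH37 enzyme supplied as purified proteasome complex · Incubation – 30 min preincubation with enzyme, 25 min cleavage at room temperature · Detection – AMC fluorescence from Ub-AMC cleavage, excitation 355 nm, emission 460 nm · Benchmarks – no-proteasome wells (full inhibition) and compound-free wells (no inhibition)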
ALR H2O2 inh: inhibitors of human ALR sulfhydryl oxidase, primary screen, biochemical, H2O2 detection, HRP-luminol luminescence, single point. FAD-linked sulfhydryl oxidase ALR (Homo sapiens), P55789. purified ALR, DTT oxidation. inhibition, % (no concentration beside the values). 3.8% of 290,000 active. AID 485317, 2010;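 active = mean and each replicate at 75% or more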;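 also: stock transfer was 7.5 nL into about 7.5 µL; 0% = neutral wells and 100% = wells with inactivated enzyme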
Target sequence (P55789 whole entry, looked up): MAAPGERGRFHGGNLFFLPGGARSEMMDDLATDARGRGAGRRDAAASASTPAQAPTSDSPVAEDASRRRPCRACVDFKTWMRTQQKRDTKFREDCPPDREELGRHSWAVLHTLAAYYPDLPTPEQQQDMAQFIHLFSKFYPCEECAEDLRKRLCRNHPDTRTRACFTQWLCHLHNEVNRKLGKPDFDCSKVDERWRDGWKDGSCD
B2AR ag: beta2AR agonists driving receptor internalization, primary screen, cell-based, FAP fluorogen, flow cytometry | AID 504454, 2011 | 0.43% of 340,000 active | response, % (test concentration not listed) | Beta-2 adrenergic receptor (Homo sapiens), P07550 | Am2.2-beta2AR cells; reference of the scale not given here;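 active = response above a set limit, near 3 SD of response in nonfluorescent compounds, cut at about 42% in these data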;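 also: stock transfer was 100 nL into about 11 µL; a reference agonist was the positive control; negative values mostly stem from fluorescent compounds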
Ecoli growth: E. coli growth inhibition, primary screen, OD600. 0.21% of 330,000 active. Escherichia coli growth, 23 h; stronger effect = lower value. OD600 absorbance (test concentration not listed);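 active = OD600 absorbance below the run mean of sample wells minus 3.6 SD, in any replicate, cut at about 0.56 in these data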;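 also: stock transfer was 300 nL into about 60 µL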
LANA-H2B inh: blockers of LANA interaction with H2A/H2B – biochemical, FP readout, HTS, primary screen | Protein LANA1 (Human herpesvirus 8 type P (isolate GK18)), Q9QR71 | cell-free LANA-H2A/H2B peptide, fluorescence polarization | inhibition, % (no concentration beside the values) | 0.6% of 320,000 active | AID 2629, 2010; in the data active = inhibition mostly above about 10%, no sharp cut-off; inactive = mostly below about 6.7%;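 also: stock transfer was 7.5 nL into about 10 µL; 0% = median of vehicle wells and 100% = median of positive control wells; one replicate is shown; the record names a cut of 25% in any replicate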
Active calls of the source: *; i = inactive; . = not tested or not shown.

mol	FGF22 binding	HNF4A DNA FP	UCH37 DUB inh	ALR H2O2 inh	B2AR ag	Ecoli growth	LANA-H2B inh
Cc1noc(C)c1S(=O)(=O)Nc1ccc(C(=O)N2CCC(C)CC2)cc1	.	.	0.8	0	.	0.64	1.8
O=C(NCc1ccco1)c1cnn2c(C(F)F)cc(-c3ccccc3)nc12	.	-1.3	-3.2	-12	-11	0.72	6.8
COc1cccc(NC(=O)Nc2cc(Cl)ccc2C)c1	i	1.7	3.5	.	1	0.69	-0.8
Cc1ccc(-c2c(C)sc(NC(=O)C3C4CCC(O4)C3C(=O)O)c2C(=O)OC(C)C)cc1 (centres undefined)	.	-2.4	1.5	3	3	0.82	-3.1
CCOC(=O)C1CCCN(C(=O)Cn2ncc3c(=O)oc4ccc(C)cc4c32)C1 (centres undefined)	.	3.6	-0.2	.	8	0.75	.
O=C1CC(N2CCC(c3nc4ccccc4s3)CC2)C(=O)N1 (centres undefined)	.	-0.3	3.8	3	3	0.69	-1.3
COc1ccc(NC(=S)N2CCN(c3ccccn3)CC2)cc1	i	-1.4	0.5	-2	-8	0.67	-6.3
CC(C)(Cc1ccc(O)cc1)NC(=O)c1ccccc1	i	-2.8	0.5	47	4	0.61	0.3
CC1CCCC(C)N1C(=O)c1cc2ncc(CCCl)cn2n1 (centres undefined)	.	3.5	-3.3	-16	-16	0.71	13*
S=C(c1ccc[nH]1)N1CCOCC1	.	2.6	1.8	-5	-12	0.7	-1.9
CCOCCCN(C)C1CCN(C(=O)c2oc3ccccc3c2NC(=O)Cc2cccc([N+](=O)[O-])c2)CC1	i	0.5	2.0	-2	-1	0.66	-1.1
CCOC(=O)CN1C(c2ccccc2O)Nc2ccc(Br)cc2C1c1ccccc1 (centres undefined)	i	-2.8	3.4	-2	11	0.67	-0.4
CC(C)CC(=O)Nc1nnc(-c2ccco2)s1	.	0.0	2.1	0	2	0.66	-0.4
CN(Cc1cccnc1)Cc1cn[nH]c1-c1ccc(-c2ccccc2)cc1	i	0.1	4.9	.	-5	0.66	-1.5
COc1ccc(/C=N/NC(=O)c2cc[n+]([O-])cc2)cc1O	i	-1.9	.	99*	1	.	1.2
C=C(C)Cn1c(SCC#N)nc2ccccc2c1=O	.	-0.5	5.1	-16	4	0.77	-1.2
Cc1ccc(C(=O)c2cnc3ccccc3c2-c2ccccc2)cc1	.	-1.2	2.7	-8	4	0.71	2.0
CCn1cc(C(=O)OCC(=O)N(C)C2CCS(=O)(=O)C2)c(=O)c2ccc(C)nc21 (centres undefined)	.	1.0	1.8	-31	10	0.75	12
CCN(c1cccc(C)c1)S(=O)(=O)c1cccc2nsnc12	.	-2.3	2.6	-15	4	0.68	-0.5
O=C(CC(Sc1ccc(Br)cc1)C(=O)O)c1ccc(F)cc1 (centres undefined)	i	0.2	5.0	.	7	0.57	-5.0
CC(=O)c1cccc(NC(=O)CCC2CCCC2)c1	.	-0.6	2.0	3	2	0.65	-1.4
Cc1ccc(NC(=O)CC2Oc3ccc(C)cc3NC2=O)c(C)c1 (centres undefined)	i	-2.6	3.0	-2	0	0.67	-1.3
CN(C)N1C(N)=C(C#N)C(c2ccc(F)cc2)C2=C1CCCC2=O (centres undefined)	i	-1.9	1.3	-74	-9	0.7	-3.3
CCCc1nn2c(=O)cc(CSCC(=O)Nc3nnc(CC)s3)nc2s1	i	3.8	2.7	-5	-1	0.63	2.2
Cc1ccc(CC(=O)NCc2ccc3c(c2)OCO3)cc1	.	2.2	-6.4	0	3	0.7	-2.5
O=c1c2c3c(sc2n(CCN2CCCC2)c(=O)n1Cc1ccco1)CCCCC3	.	1.2	0.3	-11	-2	0.63	2.7
O=C(/C=C/c1cccc(O)c1)c1ccc(N2CCOCC2)cc1	.	2.8	10	56	8	0.65	-1.8
Cc1ccc(N(C)C(=O)c2cc(S(=O)(=O)N3CCCC3)cn2C)cc1	i	3.1	2.4	-8	5	0.7	-1.1
O=c1[nH]c(N2CCN(c3ccccc3)CC2)nc2c1CCC2	.	2.0	4.8	12	-1	0.75	-1.6
COc1cccc(-c2sc3cc(OC)c(OC)cc3c2-c2ccc(OCCN3CCCCC3)cc2)c1	.	-2.1	-4.9	.	21	0.62	.
CC(=N\O)/C(CN(C)C)=N/O	.	2.6	.	-3	0	.	2.7
CCOc1ccc(C(=O)N2CCCC2)cc1OC	.	0.3	1.8	-9	-3	0.73	-3.1
CC12CCCC[C@@H]1CCC1C2CCC2(C)C1CC[C@@]2(O)CNCCO (some centres undefined)	i	5.4	3.1	-2	2	0.68	3.1
COc1cc(/C=C/C(=O)c2c(O)cc(C)oc2=O)cc(OC)c1O	.	0.0	7.9	.	8	0.69	-3.7
Cc1c(NC(=O)CSc2ccc3c(c2)OCCO3)c(=O)n(-c2ccccc2)n1C	.	1.2	6.1	.	-5	0.69	2.2
CC1CCCN(C(=O)c2cc(F)c(F)cc2Cl)C1 (centres undefined)	i	-3.6	2.1	-5	-6	0.7	0.5
Cc1ccc(C)c(OCC(=O)Nc2cccc(C(=O)O)c2)c1C	.	-2.3	4.0	49	2	0.72	-0.6
CN(C)/C=N/c1ncc(C(=O)c2ccc3ccccc3c2)s1	.	2.0	.	11	-12	.	-0.7
Cc1ccc(C)c(NC(=O)CSc2nnc([C@@H]3CCCN3C(=O)OC(C)(C)C)o2)c1	.	-1.6	1.8	-3	7	0.73	0.2
C=CCNc1nc(N)c([N+](=O)[O-])c(Nc2ccccc2OC)n1	i	-0.5	1.5	-42	10	0.68	8.7
COc1ccc(S(=O)(=O)N2CCOCC2)cc1NC(=O)CCc1cc(OC)c(OC)c(OC)c1	i	4.5	0.0	-5	1	0.72	3.2
Cc1ccc(S(=O)(=O)CC(=O)N2CC(C)OC(C)C2)cc1 (centres undefined)	i	1.8	-1.5	-16	0	0.71	-5.1
Cc1ccc(S(=O)(=O)N2C(=O)CCC2C(N)=O)cc1 (centres undefined)	i	3.0	0.0	-15	-2	0.71	-3.6
Cc1cc(C)n(CCc2nc(-c3ccc(F)cc3)cs2)n1	i	0.5	2.7	4	7	0.66	-1.7
CCOC(=O)C1CCN(S(=O)(=O)c2ccc(C(=O)OC)cc2)CC1	i	1.2	4.7	-2	9	0.7	0.0
C=CCOc1ccccc1CNc1ccc2c(c1)OCCO2	.	6.1	-6.3	-4	5	0.69	-3.4
COC(=O)c1cc(-c2ccc(S(=O)(=O)N3CCCC3)cc2)c(C(F)(F)F)s1	i	-1.8	5.0	-22	0	0.63	-0.5
COc1cc2c(cc1OC)CN(C(=O)c1ccc3nc[nH]c3c1)CC2	i	1.1	5.8	-15	-2	0.7	-6.4
CC(C)(C)NC(=O)C(=O)NNC(=O)c1cccc([N+](=O)[O-])c1	i	1.3	2.8	-3	0	0.69	-3.7
CCC1(c2ccccc2)SC(=O)NC1=O (centres undefined)	i	4.7	.	.	5	.	.

Ordered by molar mass (largest number first): part of the list above
mol	FGF22 binding	HNF4A DNA FP	UCH37 DUB inh	ALR H2O2 inh	B2AR ag	Ecoli growth	LANA-H2B inh
CCOC(=O)C1CCN(S(=O)(=O)c2ccc(C(=O)OC)cc2)CC1	i	1.2	4.7	-2	9	0.7	0.0
C=CCOc1ccccc1CNc1ccc2c(c1)OCCO2	.	6.1	-6.3	-4	5	0.69	-3.4
CC(=N\O)/C(CN(C)C)=N/O	.	2.6	.	-3	0	.	2.7

Next results follow:
mol	FGF22 binding	HNF4A DNA FP	UCH37 DUB inh	ALR H2O2 inh	B2AR ag	Ecoli growth	LANA-H2B inh
O=C(Nc1ccc(C(F)(F)F)cc1)C1CCCCN1S(=O)(=O)c1ccccc1 (centres undefined)	i	-0.1	0.8	.	5	0.72	.
COc1ccc2c(=O)c3c(=O)n(CCc4ccccc4)c(C)nc3oc2c1	i	4.9	.	.	7	.	.
CSCCC(NC(=O)COc1ccccc1)C(=O)N1CCOCC1 (centres undefined)	i	-2.5	3.7	-24	-4	0.66	-3.0
COc1ccc(C2=CSC3=C(C(=O)c4cccc(S(=O)(=O)N(C)C)c4)CCN23)cc1	.	9.1	2.9	-5	2	0.74	-7.8
CC(=O)c1cccc(NC(=O)c2nccnc2C(=O)O)c1	.	-2.0	5.7	-2	3	0.74	0.1
Cc1ccc(S(=O)(=O)NC(CC(C)C)C(=O)N2CCC(C)CC2)cc1 (centres undefined)	i	2.1	3.4	-2	3	0.72	1.2
Cc1cc(S(=O)(=O)N2CCN=C2c2ccccc2)c(Cl)cc1Cl	i	-0.5	-1.4	-1	6	0.71	0.1
O=C(NCCC1CCCCN1S(=O)(=O)c1ccccc1)C(=O)Nc1ccc(F)cc1F (centres undefined)	i	3.0	1.3	-1	-10	0.67	3.8
Cc1cc(OCC(=O)Nc2ccc3c(c2)OCCO3)cc(C)c1Cl	.	-2.0	5.2	-4	0	0.72	0.1
COc1ccc(N2CCN(Cc3nc(-c4ccccc4)no3)CC2)cc1	i	-3.6	0.1	5	-6	0.73	2.3
O=C(CSc1nnc(-c2ccccc2F)n1CCc1ccccc1)Nc1ccc2[nH]c(=O)[nH]c2c1	.	1.7	-1.0	-7	-2	0.73	-2.3
COc1ccc(Nc2nc(NN)nc(Nc3ccc(OC)cc3)n2)cc1	i	-2.2	4.3	4	17	0.7	0.2
Cc1ncc(S(=O)(=O)c2ccc(Cl)cc2)c(-c2ccccc2)n1	.	-0.2	-1.1	3	-11	0.7	2.8
CCC(COC(C)=O)Nc1nc2c([nH]1)c(=O)n(C)c(=O)n2C (centres undefined)	i	-1.1	2.4	.	-2	0.7	4.2
Cc1ccc(NC(=O)CN(C)C(=O)Cn2nnc(-c3ccccc3C)n2)cc1	i	-3.4	-1.3	-3	-1	0.64	0.9
Cc1ccc(C)c2c3c([nH]c12)-c1nonc1CC3	.	-1.9	-1.8	-4	8	0.64	-2.1
C(=C\c1cc(/C=C/c2ccccc2)ncn1)/c1ccccc1	.	-3.8	-13	5	2	0.72	3.1
COc1cc(CNC(=O)CCC(=O)N2C[C@H]3C[C@H](C2)c2cccc(=O)n2C3)cc(OC)c1OC	i	0.4	1.5	-27	-2	0.73	1.7
CCOc1ccccc1N1CCN(S(=O)(=O)c2ccc3c4c(cccc24)C(=O)N3)CC1	.	-2.4	-6.8	-47	-5	0.74	3.0
CC1CCN(S(=O)(=O)c2ccc3c(c2)oc(=O)n3CC(=O)NCc2ccc3c(c2)OCO3)CC1	i	1.1	6.9	17	-1	0.72	-3.6
O=S(=O)(/N=C(/Nc1ccccn1)c1ccccc1)c1ccc(F)cc1	i	-2.0	-2.3	-4	-5	0.62	-2.3
O=C(CSc1nc2ccccc2o1)N1c2ccccc2Sc2ccc(C(F)(F)F)cc21	.	-2.0	2.1	-2	-4	0.71	-2.3
COCC(=O)NC(c1ccccc1)c1ccccc1	.	-0.6	4.4	-22	-4	0.68	-0.1
Cc1cc(C)cc(Nc2cc(=O)n(C3CCCCC3)c(=O)[nH]2)c1	.	2.0	-1.3	-9	15	0.81	3.8
COc1ccc(C(=O)Nc2ccc3oc(Cc4ccc(Cl)cc4)nc3c2)cc1OC	i	-2.1	0.6	-1	2	0.71	4.4
Cc1cc(C)nc(N2CCCC(C(=O)NC3CC3)C2)n1 (centres undefined)	.	-0.8	-3.7	-1	-1	0.7	-3.5

High-throughput results (PubChem)

An excerpt; count on the stated rates, not on these rows.
